Screening data from PubChem BioAssay.
PKD1 kinase inh: inhibitors of human PKD1 kinase; inhibition, %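 (about 10 µM by stock and volumes)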; PKD1 kinase fluorescence polarization assay; actives 0.056% (n = 200,000); Q15139;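 active = inhibition of 50% or more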;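 also: controls were vehicle for no effect and a reference inhibitor for full effect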
INS promoter inh: TRM-6 insulin promoter activity inhibition; TRM-6 cells (human fetal islet line), insulin promoter-eGFP reporter, imaging; reporter expression induced with tamoxifen; inhibition, % at 2 µM; actives 0.9% (n = 130,000); AID 1273;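 active = inhibition above the mean plus 3 SD, with well images judged a real hit on visual review, cut at about 60% in these data, passing the limit was not always enough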
RGS16-Gao: RGS16-Galphao interaction regulator (human); O15492+P09471; bead-based flow cytometry RGS16-Galphao binding, fluorescence; actives lie on both sides; binding response (% of control), % at 10 µM; actives 0.38% (n = 220,000);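 active = below 25% or above 175%, edge rows of some plates excepted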;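 also: Galphao activated by GDP with aluminum fluoride before binding; 100% = wells without compound and 0% = beads without RGS; some results beyond the cut were filed as inactive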
Target sequence (O15492 whole entry, looked up): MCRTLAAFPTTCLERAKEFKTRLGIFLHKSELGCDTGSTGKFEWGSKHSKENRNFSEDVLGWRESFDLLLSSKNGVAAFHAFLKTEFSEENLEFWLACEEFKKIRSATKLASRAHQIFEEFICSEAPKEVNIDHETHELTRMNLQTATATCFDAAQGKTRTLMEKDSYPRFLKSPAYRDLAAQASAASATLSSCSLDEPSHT
Target sequence (P09471 whole entry, looked up): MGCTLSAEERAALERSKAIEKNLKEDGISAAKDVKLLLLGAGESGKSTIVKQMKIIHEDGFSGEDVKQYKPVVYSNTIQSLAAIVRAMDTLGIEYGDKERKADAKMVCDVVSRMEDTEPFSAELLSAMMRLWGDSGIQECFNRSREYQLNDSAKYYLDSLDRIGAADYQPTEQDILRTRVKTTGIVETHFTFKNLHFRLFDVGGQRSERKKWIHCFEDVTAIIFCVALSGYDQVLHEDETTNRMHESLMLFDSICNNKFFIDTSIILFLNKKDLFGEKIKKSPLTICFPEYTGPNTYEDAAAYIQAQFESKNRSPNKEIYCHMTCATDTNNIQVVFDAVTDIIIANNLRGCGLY
HSV augment: increases HSV replication in cells; HSV replication augmentation in cells, fold increase; maximum fold increase; actives 0.005% (n = 220,000);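 active = peak rise of 1.5-fold or more in the series; tested in PC3 cells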;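 also: first round at 10 µM; read as green reporter fluorescence; hits show the peak of a series up to 25 µM; 1 = signal of infected wells without compound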
GALR2 ag: agonists of human galanin receptor 2 (GALR2) | GALR2-expressing cells, agonist activation read-out | O43603 | actives 0.48% (n = 140,000) | AID 803 | activation, %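 (tested at 5 µM)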;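 active = above mean plus 3 SD of all compounds, about 5% in these data, not always enough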;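 also: 0% = vehicle buffer wells and 100% = reference agonist at full effect; tested in CHO reporter cells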
Target sequence (O43603 whole entry, looked up): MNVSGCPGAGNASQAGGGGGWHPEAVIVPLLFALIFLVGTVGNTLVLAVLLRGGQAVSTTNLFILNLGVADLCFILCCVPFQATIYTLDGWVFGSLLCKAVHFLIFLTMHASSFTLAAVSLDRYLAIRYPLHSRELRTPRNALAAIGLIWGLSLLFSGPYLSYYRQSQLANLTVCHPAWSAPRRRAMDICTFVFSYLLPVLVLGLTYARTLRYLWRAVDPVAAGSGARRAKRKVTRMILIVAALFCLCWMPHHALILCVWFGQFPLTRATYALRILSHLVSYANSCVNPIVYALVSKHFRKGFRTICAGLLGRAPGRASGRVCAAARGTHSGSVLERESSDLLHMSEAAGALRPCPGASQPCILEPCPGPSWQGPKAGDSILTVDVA
INS promoter inh cell count: second read-out of INS promoter inh, no call of its own (marks repeat the call); normalized cell count, %; measured here: cell count, toxicity; reference of the scale not given here;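 cells exposed to compound for 48 h; stained nuclei by imaging scaled within each plate; lower means fewer cells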
HSV augment primary fold: also measured in HSV augment; calls as there; fold increase; compound at 10 µM; measured here: primary screen fold increase 10 uM; tested in PC3 cells;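 GFP signal in the first replicate; 1 = infected wells without compound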
* hit, by the source's call; i = inactive; x = no result given; [ ] = remark or other dose.

The first 3 records, to show the layout:
SMILES	PKD1 kinase inh	INS promoter inh	INS promoter inh cell count	RGS16-Gao	HSV augment	HSV augment primary fold	GALR2 ag
CCN(Cc1ccccc1)C(c1ccc(C(F)(F)F)cc1)c1nnnn1C(C)(C)C (stereo not given)	-6	7	157	105	i	1	-1.7
O=S(=O)(c1cccs1)n1cccn1	-3	-4	49	113	i	0.83	-1.0
COc1ccc(-c2cc([C@H]3[C@@H]4C=CCC[C@@]4(C)C(=O)N3Cc3ccccc3)ccc2F)cc1	x	x	x	103	i	1.1	x

Main list, previewed entries included:
SMILES	PKD1 kinase inh	INS promoter inh	INS promoter inh cell count	RGS16-Gao	HSV augment	HSV augment primary fold	GALR2 ag
CCN(Cc1ccccc1)C(c1ccc(C(F)(F)F)cc1)c1nnnn1C(C)(C)C (stereo not given)	-6	7	157	105	i	1	-1.7
O=S(=O)(c1cccs1)n1cccn1	-3	-4	49	113	i	0.83	-1.0
COc1ccc(-c2cc([C@H]3[C@@H]4C=CCC[C@@]4(C)C(=O)N3Cc3ccccc3)ccc2F)cc1	x	x	x	103	i	1.1	x
O=C(COC(=O)Cc1cccc2ccccc12)Nc1ccccc1-c1ccccc1	0	x	x	95	i	1.3	0.1
c1ccc(-c2nc3ccccc3c3nc4ccccc4n23)cc1	-5	x	x	106	i	1.1	-0.5
CCC(=O)N1CCc2cc(S(=O)(=O)NC(C(=O)NC3CCCc4ccccc43)C(C)C)ccc21 (stereo not given)	-7	-56	125	95	i	0.95	-0.5
O=C1C2C(c3ccccc3)(C(=O)N1c1ccc(Cl)cc1)C2(c1ccccc1)c1ccccc1 (stereo not given)	-11	x	x	103	i	0.97	-1.1
O=C(CC(c1ccccc1)c1ccccc1)Nc1ccc2c(c1)OCCO2	-2	40	106	101	i	1	-1.9
CC12C(=O)N(c3ccc(C(=O)N4CCOCC4)cc3)C(=O)C1C1c3ccccc3C2c2ccccc21 (stereo not given)	-10	11	86	109	i	0.97	-0.8
Cc1c(Cl)cccc1NC(=O)CCN1CCCCCC1	-7	-205	159	106	i	0.97	-3.0
COc1ccccc1NC(=O)COn1nnc2ccc(S(=O)(=O)N3CCOCC3)cc21	-8	-44	110	100	i	0.81	x
O=C(Nc1cccnc1)c1cc(-c2ccc(F)cc2)on1	-2	x	x	99	i	1	x
OCCNCc1ccc(-c2ccccc2)cc1	1	x	x	99	i	0.89	0.8
CCC(C)(C)n1nnnc1C(c1ccc2ncccc2c1)N1CCCCCC1 (stereo not given)	2	-225	94	114	i	1	-4.6
Cc1nn(-c2ccccc2)c(C)c1/C=N/NC(=O)c1cc(-c2ccccc2)n[nH]1	-3	-125	16	114	i	0.7	-0.6
CCc1cccc(Nc2cnn(C34C[C@@H]5C[C@@H](CC(CC(=O)O)(C5)C3)C4)c(=O)c2Cl)c1	-6	25	67	104	i	0.99	x
Cc1ccc(S(=O)(=O)N2CCN(C(=O)COC(=O)c3cc(C)oc3C)CC2)cc1	4	x	x	106	x	x	-1.3
CC(=O)N(CC(=O)O)c1ccccc1	-2	-19	44	48	i	1	-1.7
Cc1ccc(NC(=S)N/N=C2/CCCCc3ccccc32)cc1	x	x	x	102	i	0.81	x
Cc1nc(N2CCN(C(=O)c3ccco3)CC2)c2c3c(sc2n1)CC(C)CC3 (stereo not given)	0	x	x	108	i	0.85	x
COc1ccc(C2c3c(-c4ccccc4O)n[nH]c3C(=O)N2Cc2ccco2)cc1OC (stereo not given)	x	x	x	104	i	0.93	x
Cc1cc(C)n2nc(C(=O)N/N=C/c3ccco3)nc2n1	x	x	x	102	i	0.85	x
O=C(CCCn1c(=O)[nH]c2ccsc2c1=O)NCc1cccs1	3	36	107	102	i	0.89	-1.4
CCOC(=O)c1c(NC(=O)CN(C)C)sc(C(=O)N(CC)CC)c1C	-6	-18	177	96	i	0.83	1.0
Cc1cccc(-c2nnn3c2nc(NCCc2ccc(S(N)(=O)=O)cc2)c2ccccc23)c1	-2	-32	105	102	i	0.55	3.8
Cc1ccc(Cl)c(NC(=O)CN2CCN(C=O)CC2)c1	-3	x	x	102	i	0.9	x
C=CCNC(=S)N/N=C/c1ccc(-c2cccc([N+](=O)[O-])c2)o1	-4	x	x	58	i	0.82	x
COc1c(O)cccc1/C=N/NC(=O)Cn1ccnc1C	x	x	x	100	i	0.93	x
O=S(=O)(CCN1CCCCC1)Oc1ccc(Cl)cc1Cl	x	x	x	104	i	1	x
S=C(NCCc1ccccc1)Nc1ccccc1	x	x	x	98	i	0.96	x
Cc1ccccc1C(=O)NNC(=O)c1cc(N)cc([N+](=O)[O-])c1	-9	69	79	96	i	0.92	-2.2
COc1ccc2c(c1[N+](=O)[O-])CCC/C2=N/OC(=O)c1ccccc1SC	-2	-5	280	101	i	0.9	-3.1
O=C(NC(=S)Nc1ccc(N2CCCCC2)cc1)c1ccc2c(c1)OCCO2	1	-69	59	204*[activator]	i	0.92	-0.8
O=C(NCc1ccccc1)c1cccc(COc2ccc3c(c2)CCC3)c1	-5	x	x	104	i	0.96	-0.5
Cc1cc(Nc2nnnn2-c2ccccc2)n(-c2ccc(Cl)cc2)n1	-14	-12	91	96	i	0.89	-0.7
CC(C)n1nnnc1-c1ccc(Cl)cc1	-1	x	x	97	i	0.78	x
COc1ccc(NC(=O)Cc2coc3cc(C)c(C(C)C)cc23)cc1S(=O)(=O)N1CCOCC1	-3	x	x	90	i	1.2	-1.2
Cc1c(C(=O)NC(C)CCc2ccccc2)cccc1[N+](=O)[O-] (stereo not given)	-5	26	98	113	i	0.87	-1.6
COC(=O)N/N=C/c1ccc(-c2cccc(Cl)c2)o1	-9	-67	127	100	i	0.84	0.7
Cc1ccc(C)c(/C(O)=C2\C(=O)C(=O)N(CCCn3ccnc3)C2c2cccnc2)c1 (stereo not given)	-4	23	71	106	i	0.87	1.7

A different layout for three compounds above:
Screens in order: PKD1 kinase inh	INS promoter inh	INS promoter inh cell count	RGS16-Gao	HSV augment	HSV augment primary fold	GALR2 ag
CC(=O)N(CC(=O)O)c1ccccc1
 : -2	-19	44	48	i	1	-1.7
Cc1ccc(NC(=S)N/N=C2/CCCCc3ccccc32)cc1
 : x	x	x	102	i	0.81	x
Cc1nc(N2CCN(C(=O)c3ccco3)CC2)c2c3c(sc2n1)CC(C)CC3 (stereo not given)
 : 0	x	x	108	i	0.85	x

(cont.)
SMILES	PKD1 kinase inh	INS promoter inh	INS promoter inh cell count	RGS16-Gao	HSV augment	HSV augment primary fold	GALR2 ag
COc1cc(NC(=O)c2cc(Cl)nnc2Cl)cc(OC)c1OC	-4	x	x	102	i	0.86	x
COc1ccc(CNC(=O)c2cc3c(C)nc4ccccc4c3o2)c(OC)c1	-10	x	x	98	i	0.95	-0.8
COc1ccccc1NC(=O)N1CCN(c2cc(-c3ccccc3)nc3ncnn23)CC1	6	x	x	99	i	0.88	-0.3
Cc1ccc(-n2cc(CNCCCn3ccnc3C)c(-c3ccc(F)cc3)n2)cc1	-1	x	x	103	i	0.75	x
Cc1cc(C(=O)COC(=O)c2ccc[nH]c2=O)c(C)n1-c1ccccc1F	x	x	x	95	i	1.1	x
OCCCn1c(-c2ccccc2)nc(=S)c2c1CCCC2	-5	-14	108	124	i	1.4	-1.9
CCN1C(=O)/C(=C\N2CCN(c3ccccc3)CC2)SC1=S	-1	x	x	98	i	0.95	-2.0
O=C1CC(c2ccco2)CC(O)=C1C=NCCO (stereo not given)	7	x	x	134	i	0.94	0.5
CC(=O)c1cccc(NC(=O)CO/N=C2/CCCc3nonc32)c1	-3	-33	108	101	i	0.94	x
N#Cc1c(Cl)cccc1Oc1ccc(S(=O)(=O)Nc2ccccc2)cc1	x	x	x	102	i	0.91	x
Cc1ccc(C(=O)NCCCn2ccnc2)cn1	3	-58	163	103	i	0.95	-0.5
Cc1cc(C)cc(OCc2nnc(N)s2)c1	x	x	x	95	i	0.91	x
C1CN(c2nc3nonc3n3nnnc23)CCO1	-1	43	72	82	i	1	-2.0
CCCCCSc1nc(C)c(CC(=O)O)c(=O)[nH]1	-2	-7	95	106	i	0.92	-0.9
COc1ccc(S(=O)(=O)N2CCN(CC(=O)Nc3ccc(F)c(F)c3)CC2)cc1	5	-1	131	106	i	0.95	-1.8
Cc1ccc(C)c(NS(=O)(=O)c2cc(C(=O)NCc3ccco3)ccc2C)c1	-1	-25	111	57	i	0.96	-0.1
Cc1cccc(OCc2nnc(SCC(=O)O)n2Cc2ccccc2)c1	-3	x	x	109	i	0.91	x
C/C(=N\NC(=O)CC#N)C1COc2ccccc2O1 (stereo not given)	3	21	90	109	i	0.99	x
FC(F)(F)c1ccc(-c2nc(=S)[nH][nH]2)cc1	x	x	x	102	i	0.9	x
CCOC(=O)CSc1nnc(NC(=O)NC(C)C)s1	1	x	x	98	i	0.93	x
COc1cc(Cl)c(C)cc1NC(=O)COc1ccccc1[N+](=O)[O-]	-2	17	142	100	i	1.3	-1.5
CCc1ccc(N2C(=O)C3NN=C(C(=O)OCc4ccccc4)C3C2=O)cc1 (stereo not given)	-7	0	98	102	i	0.92	-0.8
COCC1CCN(Cc2nc(-c3cccs3)no2)C1 (stereo not given)	-3	x	x	94	i	1.1	x
Cc1ccccc1NC(=S)NNC(=O)c1csc2c1CCC(C)C2 (stereo not given)	-4	-32	86	102	i	0.88	-1.0
COc1ccc(CCn2c(=O)[nH]c3cc(C(=O)N4CCN(c5ccccn5)CC4)ccc3c2=O)cc1OC	1	31	121	100	i	0.85	x
Fc1ccc(/C=N/c2c(-c3ccc(F)cc3)nc3n2CCS3)cc1	-2	0	101	101	i	1.1	-0.8
O=C(Nc1ccc(F)cc1F)C1(c2cccs2)CCOCC1	-5	11	100	100	i	0.98	x
CCN1CCCC1CNCc1cccc(OC)c1OCc1ccccc1F (stereo not given)	3	0	123	70	i	0.9	-2.9
CC1=C(C(=O)Nc2cc(C)ccn2)C(c2ccc(C)cc2)C2=C(CCCC2=O)N1 (stereo not given)	-7	x	x	100	i	1	1.5
O=C(Nc1cccc2ccccc12)N1CCOCC1	-6	-3	79	110	i	0.83	-2.3
COc1ccc(CC(=O)Nc2cccc(C)n2)cc1OC	1	-77	58	94	i	0.99	-2.6
COC(=O)NNC(=O)c1ccc(Cl)cc1Cl	3	38	125	112	i	1	-1.1
COc1ccc(NC(=O)CC2SC3=NCCN3C2=O)cc1 (stereo not given)	-6	x	x	96	i	0.94	x
CC(=O)N1CCC(O)(c2cccc(C(F)(F)F)c2)CC1	-2	42	136	91	i	0.76	-1.6
CCOC(=O)c1cnc2ccccc2c1Nc1cccc(C(=O)O)c1	0	0	147	141	i	0.84	x
CCCNc1nc2c(c(=O)n(C)c(=O)n2C)n1CCC(C)C	-5	x	x	99	i	1	-2.1
COc1ccccc1-c1c(C(F)(F)F)oc2cc(OCC(=O)Nc3cc(C)ccc3C)ccc2c1=O	-1	x	x	107	i	1.1	-0.9
C=CCn1c(-c2cccc3ccccc23)n[nH]c1=S	-8	-18	91	95	i	0.81	-1.3
COc1ccc(C(=O)N2CCN(C(=O)c3ccncc3)CC2)cc1	11	-20	70	102	i	1	-1.4
CCNc1nc(Oc2ccc(C(=O)OCC)cc2)nc(SC)n1	-8	x	x	103	i	0.9	-1.4
O=C(Nc1ccc(SC(F)(F)F)cc1)c1ccccn1	-4	x	x	98	i	1.1	x
CCOC(=O)Cc1csc(NC(=O)CN2C(=O)c3ccccc3C2=O)n1	x	x	x	104	i	0.91	x
O=S(=O)(/C=C/c1ccccc1)NCc1ccccc1Cl	-3	-24	88	99	i	1	-1.5
COc1ccc(CCNC(=O)Cn2nnc(-c3cccc(OC)c3OC)n2)cc1OC	-9	8	79	105	i	0.78	-0.1
O=C(COC(=O)CNC(=O)c1ccc(Cl)cc1)Nc1ccc2c(c1)OCCO2	-20	37	65	107	i	0.97	-0.8
C/C(=N\Nc1nc2ccccc2[nH]1)c1ccc(Cl)s1	-3	x	x	91	i	0.92	-0.9
O=C(O)C1C2CCCCC2=C2CCCCC2C1C(=O)O (stereo not given)	0	x	x	94	i	0.95	-0.3
CCCCN=C(C)C1=C(O)CSC1=O	-11	x	x	105	i	1.1	-0.8
Nc1nc(SCC(=O)Nc2cccc(Oc3ccccc3)c2)n[nH]1	-10	41	68	56	i	0.92	-0.2
NC(=O)C1(N2CCCCC2)CCN(C(=S)Nc2cc(F)cc(F)c2)CC1	-6	-27	114	102	i	1	x
Cc1cccc(NC(=O)NCc2ccccn2)c1	-13	-119	81	170	i	0.7	-2.1
Cc1cc(C)c(S(=O)(=O)N2CCCOC2CNC(=O)C(=O)NCCCn2ccnc2)c(C)c1 (stereo not given)	-7	-7	71	107	i	0.92	-1.4
